# BJeLR lethal: MLPCN primary cell-based screen for lethality selective to Ras in HRASV12 cells. BJeLR (HRASV12) viability, CellTiter-Glo ATP luminescence, 48 h; reference of the scale not given here. inhibition, % (test concentration not listed). actives 0.17% (n = 300,000). AID 1554, 2009;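 active = replicate mean above 50%; inconclusive = above 50% but judged a plate artefact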;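 note: 50 nL library stock added to about 25 µL; numbers are from one replicate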
# Autofluor counter: flagged as autofluorescent in microsphere protease counterscreen; fluorescence intensity (test concentration not listed); AID 624483; compound autofluorescence counterscreen, microsphere flow cytometry; stronger effect = higher value; actives 3.1% (n = 360,000);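 active = at least 3 SD above the mean of all compounds, about 16000 in these data; inconclusive = too few beads counted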;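 note: 100 nL of 1 mM stock went into each well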
# Mtb hypoxia rep: PubChem AID 1159583. M. tuberculosis hypoxia-regulated fluorescent reporter, fluorescence. fluorescence inhibition, % (concentration not given with the values). actives 0.1% (n = 300,000);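 active = 35 to 45% if threefold the growth effect, above 45% if 1.5-fold the growth effect; inactive = the rest, general growth blockers included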;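 note: wells of about 50 µL received 100 nL stock; 0% = vehicle wells and 100% = reference inhibitor wells; whole bacteria with a GFP reporter of the hypoxia response; strong numbers were not always called active; many hits fall short of the cut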
# PrP UTR inh: inhibition of PrP 5' UTR reporter expression | cell-based PrP 5' UTR mRNA reporter, plate reader | inhibition, % (test concentration not listed) | actives 0.35% (n = 340,000) | AID 488862, 2010;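 active = every replicate at 50% or more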;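 note: 0 = median of the neutral control wells; tested in H4 reporter cells; numbers are from one replicate; inactives centre near -14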
# ugtP null kill: growth inhibition of ugtP-null S. aureus, primary screen, RN4220 ugtP deletion, OD600; 16 h; some inactives read as strong as hits; growth inhibition, % (no concentration beside the values); actives 0.54% (n = 330,000);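 active = z-score under -3 and OD600 up to 0.15 on both plates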;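 note: plate controls were untreated wells for no effect and antibiotic for full effect; wells of about 80 µL received 100 nL stock; the first replicate is given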
# RN4220 kill: growth inhibition of S. aureus RN4220, primary screen, OD600; 16 h; inhibition, % (test concentration not listed); actives 0.33% (n = 330,000);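 active = z-score of -3 or lower and OD600 up to 0.18 on both plates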;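 note: plate controls were untreated cells for no effect and reference antibiotic for full effect; stock transfer was 100 nL into about 80 µL; one replicate is shown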
# Mtb hypoxia rep growth: second read-out of Mtb hypoxia rep, no call of its own (marks repeat the call); growth inhibition, %; measured here: M. tuberculosis growth (absorbance);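 0% = vehicle and 100% = reference antibiotic; read after six days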
# * = called active by the depositor; ? = inconclusive; . = not tested or not shown.
SMILES,BJeLR lethal,Autofluor counter,Mtb hypoxia rep,Mtb hypoxia rep growth,PrP UTR inh,ugtP null kill,RN4220 kill
COc1ccc(N(C)S(=O)(=O)c2c(C)[nH]c(=O)[nH]c2=O)cc1,-1,4122,-2,-6,-12,0,-0.4
COc1ccccc1C(NC(C)=O)c1c(O)ccc2ccc(O)cc12 (configuration not stated),-5,3154,10,-7,-6,1,3.7
COc1ccc(C)cc1S(=O)(=O)N(C)CC(=O)N1CCC(C(N)=O)CC1,-3,4376,-1,14,-18,5,0.0
O=C(c1ccc(CS(=O)(=O)c2c(Cl)cccc2Cl)o1)N1CCN(c2ccccn2)CC1,-4,4933,.,.,-10,6,7.3
CCC(C(=O)Nc1ccc(C(C)C)cc1)c1ccccc1 (configuration not stated),5,2163,16,-9,-6,6,1.2
N=C1c2ccccc2CN1NC(=O)c1cccc(S(=O)(=O)N2CCCC2)c1,-1,2134,-1,0,-7,1,-2.5
COc1ccc(Nc2ncnc3c2oc2ccccc23)cc1,0,2968,.,.,-122,.,.
Cc1ccc(NC(=S)N/N=C/c2ccc(OCCC(C)C)cc2)c(C)c1,1,4082,.,.,-3,.,.
COc1cccc(OCC(=O)O/N=C(\N)c2ccc(OC)c(OC)c2)c1,-12,7922,5,5,-9,4,4.0
Cc1ccc(NC(=O)c2cc3ccccc3cc2O)cc1,3,3785,0,5,-86,-5,-2.3
COc1ccc(N2CCN(CCCN)CC2)cc1,10,2118,.,.,-9,2,-0.6
COc1ccc(CCc2nc(-c3ccc(-n4cccc4)cc3)no2)cc1,1,5330,.,.,-2,2,3.6
Cc1ccc(NNC(=O)c2snnc2C)cc1Cl,3,5344,-3,2,-24,-6,2.4
O=C(O)c1cccc(S(=O)(=O)Nc2ccc(-c3ccccc3)cc2)c1,.,3718,6,9,-17,36,-6.8
Cc1c(C(=O)N2CCN(Cc3ccccc3)CC2)oc2c1C(=O)CC(C)(C)C2,7,5933,-6,13,1,-5,0.8
CCN(CC(=O)Nc1ccc2c(c1)OCCO2)C(=O)CC1CCCC1,-11,.,.,.,-4,0,-2.4
CC(C)NC(=O)CSc1nc2ccccc2c(=O)n1CCCOC(C)C,-4,11702,16,17,-14,-1,4.3
CCCCS(=O)(=O)NC1=NCN(CCOC(=O)c2ccccc2)CN1,4,2654,15,1,-15,7,2.7
C=CCc1cccc2cc(C(=O)NC(C)(C)C)c(=O)oc12,2,2128,.,.,-27,2,2.6
Cc1ccc(S(=O)(=O)NCCC(c2ccc(F)cc2)c2ccco2)cc1 (configuration not stated),1,2661,.,.,-29,-2,1.7
O=C(CSc1nnc(CNC(=O)c2ccco2)o1)Nc1ccc(OC(F)(F)F)cc1,-3,5602,-10,9,-14,-6,-0.9
Cc1ccc(C(=O)CC2(O)C(=O)N(CN3CCOCC3)c3ccccc32)cc1 (configuration not stated),-7,5697,.,.,-12,-8,0.6
CCOc1ccc(C2N(c3ccc(Cl)cc3)C(=O)C3CCCN32)cc1OC (configuration not stated),-10,8567,.,.,2,5,5.9
CCOC(=O)C1=C(C)N(CCCC(=O)O)C(=O)NC1c1cccc(OC)c1 (configuration not stated),-5,.,3,0,.,0,4.0
CC(C)CC(NC(=O)c1nc[nH]c1C(=O)NCC(=O)OCc1ccccc1)C(=O)OCc1ccccc1 (configuration not stated),.,.,4,10,.,8,8.6
CC(C)c1ccc(/C=C(\NC(=O)c2ccccc2)C(=O)NCCCN2CCOCC2)cc1,-3,4244,12,9,-23,-1,1.5
CCOC(=O)Cc1csc(SCC(=O)N2CCN(c3ccccc3)CC2)n1,.,3672,6,12,-7,6,4.0
COc1ccc(CCNC(=O)CSc2nnc(CNC(=O)c3ccccc3F)o2)cc1OC,-4,4288,.,.,-6,4,0.3
CNc1nc2c(C)cccn2c(=O)c1C=Nc1ccc(OC)cc1,10,4138,-5,-8,-24,5,9.0
O=C(Cc1c(O)c2ccccc2[nH]c1=O)N(Cc1ccccc1)Cc1ccccc1,16,22649*,-2,7,-3,-8,3.8
CCCn1c(N2CCN(CC(=O)c3c[nH]c4ccccc34)CC2)nc2c1c(=O)[nH]c(=O)n2C,13,3368,13,10,-2,-5,2.3
CC(=O)Nc1cccc(NC(=O)CSc2nnc3ccc(-c4ccccn4)nn23)c1,-2,5353,1,4,-14,-3,0.2
COCCN1C(=O)C(=O)/C(=C(/O)c2ccc(S(=O)(=O)N3CCCCC3)cc2)C1c1ccc(OC)cc1 (configuration not stated),0,4053,-6,-12,-17,18,8.1
CCCN(CC(=O)Nc1ccccc1OC)C(=O)CNC(=O)c1ccc(C)s1,.,4603,4,13,-11,8,4.2
NC(=O)NN=Cc1ccc(N2CCOCC2)s1,.,.,9,4,.,-1,2.2
Cc1cc(C)c(C)c(Cn2c(CO)nc3ccccc32)c1C,-6,2648,0,9,5,-13,3.1
O=C(O)CCC(=O)NNC(=O)CCC(=O)Nc1ccccc1,1,4740,10,-4,2,0,6.0
CCOC(=O)C1=C(C)C(c2ccccc2)NC(=S)N1 (configuration not stated),2,18384*,7,6,-25,-1,2.4
C/C(=N\NC(=O)c1ccccc1O)C1CC1,1,6136,.,.,-4,.,.
CC(C)N(Cc1cc2ccccc2[nH]c1=O)C(=O)C(C)(C)C,-4,2384,.,.,-8,-1,2.4

# Five compounds from above, ordered by number of heavy atoms, low to high:
SMILES,BJeLR lethal,Autofluor counter,Mtb hypoxia rep,Mtb hypoxia rep growth,PrP UTR inh,ugtP null kill,RN4220 kill
NC(=O)NN=Cc1ccc(N2CCOCC2)s1,.,.,9,4,.,-1,2.2
Cc1ccc(NNC(=O)c2snnc2C)cc1Cl,3,5344,-3,2,-24,-6,2.4
COc1ccc(N(C)S(=O)(=O)c2c(C)[nH]c(=O)[nH]c2=O)cc1,-1,4122,-2,-6,-12,0,-0.4
CCN(CC(=O)Nc1ccc2c(c1)OCCO2)C(=O)CC1CCCC1,-11,.,.,.,-4,0,-2.4
COc1ccc(CCc2nc(-c3ccc(-n4cccc4)cc3)no2)cc1,1,5330,.,.,-2,2,3.6

# (continued)
SMILES,BJeLR lethal,Autofluor counter,Mtb hypoxia rep,Mtb hypoxia rep growth,PrP UTR inh,ugtP null kill,RN4220 kill
COC(=O)c1ccc(-c2noc(CN(C)CCC3CCCCO3)n2)cc1 (configuration not stated),1,2605,-8,1,-23,13,7.9
O=C(O)CCC(=O)NNc1ccccc1[N+](=O)[O-],4,2481,3,2,-23,5,4.2
COC(=O)c1cc(-c2c(C)nn(-c3ccccc3)c2C)n[nH]1,2,5525,.,.,-26,3,0.5
CC(=O)Nc1ccc(Nc2nc(C)nc3c2oc2ccccc23)cc1,6,9238,13,14,-11,-14,-1.7
CN(Cc1nnc(-c2ccc(F)cc2)o1)c1ccccc1,0,5072,.,.,-25,-1,1.8
COc1ccc(CN2CC(C(=O)NCCC3=CCCCC3)CC2=O)cc1 (configuration not stated),-1,5884,3,2,-19,3,2.4
Cc1ccc(NC(=O)c2ccco2)c(NC(=O)c2cccs2)c1,1,9232,5,-1,-17,6,4.5
COC12NC(=O)N(C)C1(OC)C(=O)N(C)C(=O)N2C (configuration not stated),17,2570,5,-5,-25,-2,1.5
O=C(NCCCN1CCOCC1)c1ccc2c(c1)N(Cc1ccc(Cl)cc1)C(=O)c1ccccc1S2=O (configuration not stated),10,5242,-8,21,-4,-3,-2.0
CC(=NNS(=O)(=O)c1ccc([N+](=O)[O-])cc1)c1ccc(NC(=O)c2ccco2)cc1,.,.,-8,-16,.,6,7.8
CCN(CC)C(=O)N1c2ccccc2C=Cc2ccccc21,28,2917,16,17,-7,-16,0.9
COc1ccc(NC(=O)CCNS(=O)(=O)c2ccc3c(c2)CCC(=O)N3)cc1,-17,11435,3,3,14,0,3.5
O=C(Nc1cccc(S(=O)(=O)N2CCCCCC2)c1)c1cc(=O)c2ccccc2o1,8,4075,2,8,-14,8,15
Cc1c(-c2ccc(F)cc2)nc(N)c(C#N)c1-c1cccs1,0,5204,5,3,-33,0,1.7
CCCCOC(=O)c1cc(=O)[nH]c(=O)[nH]1,2,5425,.,.,-26,-6,7.7
Cc1ccccc1Nc1nc(N)nc(COC(=O)[C@@H](NC(=O)c2c(F)cccc2F)C(C)C)n1,2,8682,4,-11,-7,10,5.0
Cc1csc(SCC(=O)Nc2nc3ccccc3s2)n1,2,2937,.,.,-27,-13,-0.5
CC(C)CN1CCNC(=O)C1CC(=O)NCCc1ccc(C(F)(F)F)cc1 (configuration not stated),-2,4269,3,-3,-30,4,5.4
Cc1c(NC(NC(=O)CC(C)C)C(Cl)(Cl)Cl)c(=O)n(-c2ccccc2)n1C (configuration not stated),0,4497,1,1,-28,10,-0.4
CCCSc1nc2c(c(=O)[nH]c(=O)n2C)n1Cc1ccc(C)cc1,-12,21791*,3,9,-2,-3,-1.3

# Full records, quoted from the list:
# Cc1ccc(NNC(=O)c2snnc2C)cc1Cl is listed with BJeLR lethal = 3; Autofluor counter = 5344; Mtb hypoxia rep = -3; Mtb hypoxia rep growth = 2; PrP UTR inh = -24; ugtP null kill = -6; RN4220 kill = 2.4
# CN(Cc1nnc(-c2ccc(F)cc2)o1)c1ccccc1 is listed with BJeLR lethal = 0; Autofluor counter = 5072; Mtb hypoxia rep = .; Mtb hypoxia rep growth = .; PrP UTR inh = -25; ugtP null kill = -1; RN4220 kill = 1.8

# Among those listed so far, these have a CF3 group.
SMILES,BJeLR lethal,Autofluor counter,Mtb hypoxia rep,Mtb hypoxia rep growth,PrP UTR inh,ugtP null kill,RN4220 kill
O=C(CSc1nnc(CNC(=O)c2ccco2)o1)Nc1ccc(OC(F)(F)F)cc1,-3,5602,-10,9,-14,-6,-0.9
CC(C)CN1CCNC(=O)C1CC(=O)NCCc1ccc(C(F)(F)F)cc1 (configuration not stated),-2,4269,3,-3,-30,4,5.4

# By substructure: the compounds so far containing a COOH group
SMILES,BJeLR lethal,Autofluor counter,Mtb hypoxia rep,Mtb hypoxia rep growth,PrP UTR inh,ugtP null kill,RN4220 kill
O=C(O)c1cccc(S(=O)(=O)Nc2ccc(-c3ccccc3)cc2)c1,.,3718,6,9,-17,36,-6.8
CCOC(=O)C1=C(C)N(CCCC(=O)O)C(=O)NC1c1cccc(OC)c1 (configuration not stated),-5,.,3,0,.,0,4.0
O=C(O)CCC(=O)NNC(=O)CCC(=O)Nc1ccccc1,1,4740,10,-4,2,0,6.0
O=C(O)CCC(=O)NNc1ccccc1[N+](=O)[O-],4,2481,3,2,-23,5,4.2

# Following part:
SMILES,BJeLR lethal,Autofluor counter,Mtb hypoxia rep,Mtb hypoxia rep growth,PrP UTR inh,ugtP null kill,RN4220 kill
NC(=O)c1ccc(C23CC4CC(CC(C4)C2)C3)o1,2,2145,.,.,-24,.,.
CCOc1cccc(-c2nn3c(-c4ccco4)nnc3s2)c1,-5,23209*,5,8,-33,-15,7.2
CCOC(=O)c1csc(NC(=O)c2ccc(S(=O)(=O)N(C)C)cc2)n1,3,6228,12,3,-23,6,1.6
O=c1cc(N2CCCCC2)c(-c2ccccc2)nn1Cc1ccccc1,.,2122,-18,-11,-13,-1,4.7
Cc1nc(SCCc2ccccc2)[nH]c(=O)c1C,-6,5628,4,-1,-4,6,2.9
Cc1cccc(NC(c2ccc(O)cc2)c2ccc3ccc(C)nc3c2O)n1 (configuration not stated),-1,?,1,-3,-9,0,3.3
O=C(COc1cc(Cl)c(Cl)cc1Cl)N1CCN(c2ccccn2)CC1,1,3916,4,4,-17,-8,1.3
COC(=O)C1=C(c2ccc(Cl)c(C(F)(F)F)c2)C[C@@H]2CC[C@H]1N2C(=O)NCCOc1ccccc1,.,4103,3,13,-5,-17,-11
O=C1CC(N2CCN(Cc3ccc4c(c3)OCO4)CC2)C(=O)N1c1ccccc1 (configuration not stated),.,10782,2,-3,-31,5,0.3
COC(=O)c1ccc(C(=O)OCCCc2nc3ccc(N)cc3[nH]2)cc1,-4,2148,9,7,-12,5,-2.7
COc1ccc(/C=C/C(=O)NC(=S)Nc2ccc(S(=O)(=O)Nc3cc(OC)ncn3)cc2)cc1,.,5768,2,-4,-13,-11,9.4
COc1ccc(C(=O)Nc2ccccc2C(=O)Nc2ccncc2)cc1,3,4654,-5,2,-33,-9,1.3
CNC(=S)NN=Cc1cn(CCOc2ccc(OC)cc2)c2ccccc12,.,.,2,-4,.,-12,19
Cn1c(SCCC#N)nnc1-c1ccc(F)cc1,5,4007,-2,0,-9,3,3.8
O=C1C(=O)c2ccccc2C(O)=C1c1ccccc1F,-13,6195,23,-2,-24,7,12
C[C@]12CC[C@@H]3c4ccc(O)cc4CC[C@H]3[C@@H]1CC[C@@H]2OC(=O)CCC1CCCC1,-3,5327,.,.,-3,.,.

# High-throughput results (PubChem)
